NPYLR7 ag: agonists of mosquito NPYLR7 receptor, primary screen, cell-based, Aedes aegypti, calcium fluorescence, mosquito biting behavior; HEK293T NPYLR7/Galpha15, GCaMP6s calcium fluorescence; activation, % at 10 µM; 0.15% of 270,000 active; AID 1259423, 2018; in the data active means activation above about 40%;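 further: 0% = vehicle and 100% = reference agonist at the receptor; some compounds past the cut are filed as inactive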
NPYLR7 ag max-min: second read-out of NPYLR7 ag, no call of its own (marks repeat the call); activation, %; measured here: Max-Min RFU normalised activation; some inactives read as strong as hits;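 span of the calcium signal over five minutes; 0% = vehicle and 100% = native peptide agonist; compound fluorescence can raise it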
The depositor's hits bear a star; & = joins results of further samples.

SMILES	NPYLR7 ag	NPYLR7 ag max-min
Cc1ccsc1CN(Cc1ccccc1)C(=O)CN(C(=O)Nc1ccccc1Br)C(C)C	-4	8
CCc1cc(CN(C)C(=O)c2cc(-c3ccc(O)cc3)n[nH]2)on1	-15	-14
CCOC(=O)COc1ccc(Cl)cc1-c1ccnn1-c1ccccc1	-4	-4
OCC1(Cc2ccccc2)CCN(Cc2cccc(-n3cccn3)c2)CC1	8	6
COc1ccc(-n2c(-c3ccccc3)cc(C(=O)N3CCN(C(=O)c4cccs4)CC3)c2C)cc1OC	-3	-3
Cc1ccc(C)c(Cn2c(=O)c3c(nc4n3CC(C)CN4Cc3ccccc3)n(C)c2=O)c1 (stereo not drawn)	9	9
N#CC1C(=N)C(C#N)(C#N)C(c2cccc3ccccc23)C2CCCC=C12 (stereo not drawn)	3	3
COc1ccc2c(c1)OCC(C1Nc3ccccc3C(=O)N1C1CC1)=C2 (stereo not drawn)	2&3	3&1
CCc1[nH]n(C)c(=O)c1C1=C(N(C)C2CCCCC2)C(=O)N(c2cccc(Cl)c2)C1=O	-1	3
O=C(CCC1CCCN(Cc2ccc3nsnc3c2)C1)NCc1ccccc1Cl (stereo not drawn)	5	1
Cc1cc(-c2ccc(-c3ccn[nH]3)cc2)nc(N)n1	-1	13
CC(C)c1ccc(C(C)NC(=O)c2cccn2C)cc1 (stereo not drawn)	-4	-5
O=C1CCCCCN1CCC(=O)N1CCOC(CCCc2ccccc2)C1 (stereo not drawn)	16	8
COC(=O)c1cc(CN2C[C@H](N(C)C)C[C@H]2C(=O)OC)ccc1O	4	1
CCSc1ccc(C(C)NC(=O)NC(C)Cn2cncn2)cc1 (stereo not drawn)	1	-1
CC1CCC2(CC1)NC(=O)N(NC(=O)CN1CCN(Cc3ccsc3)CC1)C2=O (stereo not drawn)	6	4
CC(C)(C)C(=O)CN1CCC(C(=O)NC(c2ccc(-c3ccccc3)cc2)c2cnccn2)CC1 (stereo not drawn)	-1	5
CSc1nnc(CC2CCN(Cc3cccc4nsnc34)CC2)n1C	1	-2
Cc1ccc(-c2cccc(C(=O)N(C)Cc3nncn3C(C)C)c2)o1	20	8
COc1ccc(N(C(C)=O)S(=O)(=O)c2cccs2)cc1	3	4
O=C1c2oc3ccc(F)cc3c(=O)c2C(c2ccccc2F)N1c1ccccn1 (stereo not drawn)	4	-1
O=C(NCc1cccnc1)c1cc2scc(Br)c2n1Cc1cccc([N+](=O)[O-])c1	7	4
CCCOc1ccc(N2C(=O)CC(N3CCSCC3)C2=O)cc1 (stereo not drawn)	-5	-11
CCC(C)N(CC(=O)N1CCc2sccc2C1c1ccc(F)cc1)C(=O)c1ccc(C(F)(F)F)cc1 (stereo not drawn)	-13	-16
CN1CCCN(C(=O)c2cccnc2N2CCCC2c2ccccc2)CC1 (stereo not drawn)	9	12

The list goes on:
SMILES	NPYLR7 ag	NPYLR7 ag max-min
N#Cc1cccc(NC(=O)c2cc(Cl)c3c(c2)OCCCO3)c1	1	0
CCCN(CC(=O)Nc1cc(C(C)(C)C)nn1-c1cccc(C)c1)C(=O)Nc1ccc(Br)cc1	12	20
COCCCN(Cc1cccn1Cc1ccccc1Cl)C(=O)Nc1ccc(C)c(C)c1	10	21
COc1cccc(NC(=O)NNc2nc3c(-c4ccccc4)nnn3c3ccccc23)c1	-6	-13
CCn1c(=O)c(C(=O)Nc2cc(Cl)ccc2OC)c(O)c2ccccc21	-8	-10
COc1ccc(-n2c(CCC(=O)NCc3ncccc3C)cc3c2-c2ccccc2CC3)cc1	1	-1
Cc1cc(NC(=O)c2cccc(C(F)(F)F)c2)n(-c2nc3c(c(=O)[nH]2)CCC3)n1	9	2
Nc1nccnc1C(=O)NNc1ccccc1C(F)(F)F	8	0
Cc1cccc(C)c1OCCCn1c(C2CC(=O)N(C(C)(C)C)C2)nc2ccccc21 (stereo not drawn)	5	9
CC(C)c1cc(C(C)C)n(C2CCN(C(=O)CC3C=CCC3)CC2)n1 (stereo not drawn)	26	24
CC(C)(C)c1cc2nc(-c3ccc(F)cc3)cc(C(=O)NCc3cccc(C(F)(F)F)c3)n2n1	3	3
CCOC(=O)c1cc(-c2cccc(NC(=O)c3ccc(Cl)nc3)c2)n(-c2ccccc2OC)n1	30	16
CCC(CC)C(=O)Nc1cccc(-c2cccc(-c3ccccc3OC)n2)c1	26	28
Cc1c(C(=O)NCCC2=CCCCC2)cnc2c(-c3cccc(Cl)c3)cnn12	12	-2
Cc1[nH]c(=O)ccc1C(=O)NCC(C)(C)c1cccc(F)c1	-20	-22
O=C(Nc1c(C(=O)Nc2ccc([N+](=O)[O-])cc2)oc2ccccc12)c1ccco1	5	4
COC(=O)C(C)CC(=O)NCC(C)Oc1ccc(F)cc1 (stereo not drawn)	10	8
CCCNC(=O)N(Cc1nccn1Cc1ccc(F)c(F)c1)CC1CC1	15	26
O=C1CC2(CCN(C(=O)C(=O)Nc3ccccc3Cl)CC2)CN1	0	14
CN1CCN(n2c3c(c(SCC(=O)Nc4ccc5c(c4)OCO5)nc2=O)CCC3)CC1	-3	-8
Cc1cccc(C2=NN(C(=O)CN3CCC4(CC3)OCCO4)C(c3ccc(Cl)cc3)C2)c1 (stereo not drawn)	1	5
CCn1ccnc1Cc1nc2ccc(C)cc2c(=O)[nH]1	-22	-22
CCc1c(C)cc(C(=O)N(C)Cc2ccsc2)c(=O)n1C	26	21
COc1ccc(NC(=O)c2ccoc2COc2ccc(C)cc2)cc1	7	17
Cc1c(C)c(C(=O)Nc2ccc3c(c2)OCO3)n(Cc2ccccc2F)c1C	19	26

(further entries)
SMILES	NPYLR7 ag	NPYLR7 ag max-min
CCOC(=O)c1c(CN2CCCC2)n(C)c2cc(Br)c(OC)cc12	3	3
CC(C)(CNC(=O)C1CCOCC1)c1cccc(Br)c1	4&5	3&2
Cc1cccc(C(=O)Nc2c(C)nc3c(C)cccn3c2=O)c1	3	0
O=C(Nc1ccc(C(F)(F)F)cc1)N1CCC(CN2C(=O)CSC2c2ccccc2F)CC1 (stereo not drawn)	7	7
CCCn1c(C(=O)NN2CCCC2=O)cc2c(=O)n(C)c(=O)n(C)c21	0	0
COc1cc(OC)cc(-c2cc3c(Nc4cccnc4)nccc3[nH]2)c1	2	-5
Cc1cccnc1NC(=O)C1CCCN(c2ccc(-c3cccs3)nn2)C1 (stereo not drawn)	-5	-9
Cc1occc1C(=O)N1CCNCC1C(=O)NCc1ccccn1 (stereo not drawn)	1	1
COC(=O)c1ccc(C(=O)N2CCc3ccccc3C2c2ccccc2Cl)cc1 (stereo not drawn)	19	10
Nc1nc2c(cnn2CCc2ccccc2)c2nc(-c3ccco3)nn12	24	10
CCC(C)n1nccc1NC(=O)C(C)Sc1nncs1 (stereo not drawn)	-3	9
COC(=O)c1cc2oc(C)cc2n1CC(C)=O	2	-1
CC(=O)CSc1nc(C)nc2c1oc1ccccc12	5	2
Cc1nn(C)c(C)c1-c1ccnc(NCc2ccc3c(c2)OCO3)n1	2	-1
O=C(c1ccco1)N1CCN(c2cc(Oc3ccc(F)c(F)c3)ncn2)CC1	5	-2
Clc1ccc(Cl)c(-c2ccc(CNCCN3CCCC3)o2)c1	0	0
COc1ccc(C)cc1C(C)NCc1ccccc1OCC(=O)N1CCCC1 (stereo not drawn)	0	0
CCCn1ncc(C(=O)NCCn2ncc3ccccc3c2=O)c1C	13	6
COCCN(Cc1cccs1)Cc1coc2ccc(C)cc2c1=O	-3	-4
COC[C@H]1CCCN1Cc1ccc(C(=O)Nc2cnn(C)c2)cc1	4	3
Cc1nc(N2CC[C@H](O)[C@@H](O)C2)c2cnn(C)c2n1	9	10
COc1ccccc1C(=O)N1CCC(C(NC(=O)c2ccc(F)cc2)C(=O)NC2CC2)CC1 (stereo not drawn)	9	7
C=Cc1ccc(CN2C(=O)C(C)Sc3ccc(S(C)(=O)=O)cc32)cc1 (stereo not drawn)	5	1
CCCNC(=O)N(CCN(C)C)Cc1nccn1Cc1cccc(C(F)(F)F)c1	7	16
COc1ccc(NC(=O)C2(C)CCCN2C(=O)C(C)C)cc1OC (stereo not drawn)	5	1

The results go on:
SMILES	NPYLR7 ag	NPYLR7 ag max-min
N#Cc1c(NC(=O)Cc2c(F)cccc2Cl)sc2c1CCC2	2	-1
CC(C)Nc1ncccc1C(=O)NC[C@@H]1CCCO1	0	2
CC(C(=O)Nc1ccc(Cl)cc1)N1CCCC1c1cccs1 (stereo not drawn)	-8	-10
CN1CCN(C(=O)c2cc(N)cc3[nH]ncc23)CC1	27	15
CCC1(C(=O)Nc2cccc(F)c2F)CCC1	3	1
COCCN1C[C@H]2COc3ccc(C)cc3[C@H]2N(C(=O)Cc2ccccc2)CCC1=O	1	4
Cc1cccc(NC(=O)c2ccc(=O)n(Cc3ccccc3Cl)c2)n1	12	4
C=CCn1c(-c2ccncc2)n[nH]c1=S	-7	-7
Cc1ccsc1CN(Cc1ccc2c(c1)OCO2)C(=O)CN(C(=O)c1ccco1)C1CCCCC1	-8	0
CCc1nnc2c3c4c(sc3nc(CC)n12)CCCC4	3	2
COc1ccc(OC)c(C2CCN(c3ncnc4[nH]ccc34)C2)c1 (stereo not drawn)	13	15
CN(C)C(=O)N1CCN(C(=O)N(C)C)CC1	0	1
Cc1[nH]c(C(=O)O)c(C)c1C(=O)C(C)C	3	1
O=C(O)C(Sc1cnc2ccccc2n1)c1ccccc1 (stereo not drawn)	2	0
Cc1onc(-c2c(Cl)cccc2Cl)c1CN1CCOC(C(F)(F)F)C1 (stereo not drawn)	3	2
CCOc1ccc(C(=O)Nc2cccc(-c3cc4ccccc4oc3=O)c2)cc1[N+](=O)[O-]	-8	-7
CC1(C)C2CCC1(C)C(Oc1ccc([N+](=O)[O-])cc1F)C2 (stereo not drawn)	-6	-8
O=C(NCc1ccc2c(c1)CCCO2)c1ccc(CSc2ncn[nH]2)o1	8	5
O=C1N=c2ccc(Br)cc2=C1c1sc(=O)[nH]c1O	1	-7
O=C(NC(c1ccc2c(c1)OCO2)c1ccccn1)C1CCN(Cc2cccc(Cl)c2)CC1 (stereo not drawn)	11	0

3 entries drawn at random from those above:
SMILES	NPYLR7 ag	NPYLR7 ag max-min
COCCN1C[C@H]2COc3ccc(C)cc3[C@H]2N(C(=O)Cc2ccccc2)CCC1=O	1	4
CCc1nnc2c3c4c(sc3nc(CC)n12)CCCC4	3	2
Cc1cccc(NC(=O)c2ccc(=O)n(Cc3ccccc3Cl)c2)n1	12	4

Of the compounds above, 17 contain a Cl atom:
SMILES	NPYLR7 ag	NPYLR7 ag max-min
CCOC(=O)COc1ccc(Cl)cc1-c1ccnn1-c1ccccc1	-4	-4
CCc1[nH]n(C)c(=O)c1C1=C(N(C)C2CCCCC2)C(=O)N(c2cccc(Cl)c2)C1=O	-1	3
O=C(CCC1CCCN(Cc2ccc3nsnc3c2)C1)NCc1ccccc1Cl (stereo not drawn)	5	1
N#Cc1cccc(NC(=O)c2cc(Cl)c3c(c2)OCCCO3)c1	1	0
COCCCN(Cc1cccn1Cc1ccccc1Cl)C(=O)Nc1ccc(C)c(C)c1	10	21
CCn1c(=O)c(C(=O)Nc2cc(Cl)ccc2OC)c(O)c2ccccc21	-8	-10
CCOC(=O)c1cc(-c2cccc(NC(=O)c3ccc(Cl)nc3)c2)n(-c2ccccc2OC)n1	30	16
Cc1c(C(=O)NCCC2=CCCCC2)cnc2c(-c3cccc(Cl)c3)cnn12	12	-2
O=C1CC2(CCN(C(=O)C(=O)Nc3ccccc3Cl)CC2)CN1	0	14
Cc1cccc(C2=NN(C(=O)CN3CCC4(CC3)OCCO4)C(c3ccc(Cl)cc3)C2)c1 (stereo not drawn)	1	5
COC(=O)c1ccc(C(=O)N2CCc3ccccc3C2c2ccccc2Cl)cc1 (stereo not drawn)	19	10
Clc1ccc(Cl)c(-c2ccc(CNCCN3CCCC3)o2)c1	0	0
N#Cc1c(NC(=O)Cc2c(F)cccc2Cl)sc2c1CCC2	2	-1
CC(C(=O)Nc1ccc(Cl)cc1)N1CCCC1c1cccs1 (stereo not drawn)	-8	-10
Cc1cccc(NC(=O)c2ccc(=O)n(Cc3ccccc3Cl)c2)n1	12	4
Cc1onc(-c2c(Cl)cccc2Cl)c1CN1CCOC(C(F)(F)F)C1 (stereo not drawn)	3	2
O=C(NC(c1ccc2c(c1)OCO2)c1ccccn1)C1CCN(Cc2cccc(Cl)c2)CC1 (stereo not drawn)	11	0

Source: PubChem BioAssay (Fisher Drug Discovery Resource Center)

A portion of the library, so the mix of outcomes need not match the whole.
